Cruzain Triton: inhibitors of Trypanosoma cruzi cruzain with detergent; Potency, µM, inactives show max response, negative = inhibition, most hits filed as inhibitors; purified cruzain, Z-FR-AMC fluorescence, 0.01% Triton; P25779; AID 1478; 200,000 compounds, 0.43% hits;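 also: plate controls were neutral wells for no effect and buffer without enzyme for full effect; nearly all actives have a fitted effect of over 40% in size; top concentration of the series not given in the record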
Target sequence (P25779 123-467 limits assumed): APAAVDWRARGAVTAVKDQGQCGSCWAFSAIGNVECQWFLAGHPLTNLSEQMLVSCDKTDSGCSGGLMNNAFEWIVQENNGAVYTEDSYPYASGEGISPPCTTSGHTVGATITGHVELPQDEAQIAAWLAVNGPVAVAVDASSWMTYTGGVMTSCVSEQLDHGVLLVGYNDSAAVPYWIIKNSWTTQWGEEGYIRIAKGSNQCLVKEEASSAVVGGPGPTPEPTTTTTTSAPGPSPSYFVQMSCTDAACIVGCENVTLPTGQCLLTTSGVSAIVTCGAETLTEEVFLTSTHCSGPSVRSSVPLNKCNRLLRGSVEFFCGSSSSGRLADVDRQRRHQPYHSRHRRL
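Cruzain (1.5 nM) preincubated 15 min at RT with compound in 100 mM sodium acetate pH 5.5, 5 mM DTT, 0.01% Triton X-100. Reaction started with 2 uM Z-FR-AMC; AMC fluorescence (ex 360/em 450 nm) change over 60 s gave rate.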
Cruzain inh noDet: blocks cruzain activity in detergent-free assay; 200,000 compounds, 2.3% hits; P25779; Potency, µM, for inactives: max response, negative = inhibition, actives largely listed as inhibitors; purified cruzain, Z-FR-AMC fluorescence, no detergent;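 also: plate controls were enzyme without inhibitor for no effect and buffer without enzyme for full effect; nearly all actives have a fitted effect of over 40% in size; top concentration of the series not given in the record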
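Purified cruzain at 1.5 nM, pre-incubated 15 min with compound at room temperature in 100 mM sodium acetate pH 5.5, 5 mM DTT, 0.00005% Triton X-100. Reaction started with 2 uM Z-FR-AMC; AMC fluorescence increase over 60 s gives rate.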
SARS PLP yeast: inhibitors of SARS-CoV papain-like protease in yeast; S. cerevisiae expressing SARS-CoV PLpro, growth rescue; control for the full effect not named in the record; Potency, µM (series often up to 32.9 µM), for the others: at the highest dose activity, positive = growth rescue; 330,000 compounds, 0.19% hits; active means well fitted rising curve with a large enough effect; inconclusive means small, poorly fitted or top-dose-only effect; inactive means no such curve, though single readings can be large or run the other way; also: 0% is about no effect; nearly all actives have a fitted effect of over 55% in size; growth read by luminescence after 48 h
StopGo reporter: FMDV 2A StopGo reporter, luciferase signal. 410,000 compounds, 1.2% hits. human cells with a luciferase reporter of 2A StopGo recoding; control for the full effect not named in the record. Potency, µM (highest dose often 57.9 µM), for the others: at the top dose signal change, negative = less light. AID 1159524; active = well fitted falling curve with a large enough effect; inconclusive = small, poorly fitted or top-dose-only effect; inactive = no such curve, though single readings can be large or run the other way; tested in HEK293T cells; also: % is scaled to controls: 0 for no effect and ±100 for the full control effect; nearly all actives have a fitted effect of over 45% in size; luciferase light after 4 h
LASV entry inh: Lassa virus entry inhibition; Lassa virus pseudotype entry inhibition, cell reporter; control for the full effect not named in the record; Potency, µM (series often up to 37.9 µM), for the others: at the highest dose activity change, negative = inhibition, most hits filed as inhibitors; 300,000 compounds, 1.2% hits; AID 540256; active means well fitted inhibition curve with a large enough effect; inconclusive means small, poorly fitted or top-dose-only effect, or effect the other way; inactive means flat fitted curve, though single readings scatter; tested in HEK293 cells; also: % is scaled to controls: 0 for no effect and ±100 for the full control effect; nearly all actives have a fitted effect of over 50% in size; luciferase read-out
Marburg entry inh: inhibitors of Marburg virus binding or cell entry | Marburg virus pseudotyped entry inhibition, cell reporter; control for the full effect not named in the record; about a third of the inactives were read at about 46 µM | Potency, µM (doses to about 37.8 µM), without a hit: at the highest dose activity change, negative = inhibition, hits mostly inhibitors | 300,000 compounds, 1.8% hits | AID 540276; active = well fitted inhibition curve with a large enough effect; inconclusive = small, poorly fitted or top-dose-only effect, or effect the other way; inactive = flat fitted curve, though single readings scatter; tested in HEK293 cells; about a fifth of its hits are not listed in these tables; also: % is scaled to controls: 0 for no effect and ±100 for the full control effect; luciferase read-out
NS1 function inh: inhibitors of influenza NS1 protein function | Potency, µM (top dose mostly 46.1 µM), inactives show top-dose activity, positive = more growth | S. cerevisiae slowed by influenza A NS1, growth recovery by OD600 | AID 2326 | 270,000 compounds, 0.4% hits; active means well fitted rising curve with a large enough effect; inconclusive means small, poorly fitted or top-dose-only effect; inactive means no such curve, though single readings can be large or run the other way; also: nearly all actives have a fitted effect of over 50% in size
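A cell-based growth assay was used: compounds that relieve NS1-induced slow growth of budding yeast raise OD600. Assay medium was yeast nitrogen base with ammonium sulphate and -URA supplement, pH 6.0, with 2% galactose.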
RE007 growth inh: less growth of the S. pombe RE007 Vpr strain | S. pombe RE007 Vpr strain, BacTiter-Glo ATP luminescence, 24 h; control for the full effect not named in the record | Potency, µM (doses to about 92.2 µM), for the others: at the top dose activity change, negative = less growth | 360,000 compounds, 0.21% hits; active = well fitted falling curve with a large enough effect; inconclusive = small, poorly fitted or top-dose-only effect; inactive = no such curve, though single readings can be large or run the other way;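 also: % is scaled to controls: 0 for no effect and ±100 for the full control effect; nearly all actives have a fitted effect of over 50% in size; the assay follows cell death caused by Vpr and the record does not say whether a fall means rescue or toxicity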
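Fission yeast RE007 carrying one integrated HIV-1 vpr copy, seeded at OD 0.01 in PMG+AL medium with 23 nL pinned compound. Grown 24 h at 30 degrees; viability read by BacTiter-Glo luminescence after 5 min.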
* hit, by the source's call; ? = inconclusive; . = not tested or not shown; & = joins results of further samples; [ ] = dose if it differs, or a comment. Unless noted, calls follow the shape of the dose curve; as a rule, active = well fitted curve in the direction sought with a large enough effect; inconclusive = small, poorly fitted or top-dose-only effect, or another doubt; inactive = no such curve, though single readings can be large; an effect the other way counts as inactive or inconclusive. Potency is read from the fitted curve at half-maximal effect.

1	CCC(C)Oc1nc(C)cc(C)c1S(=O)(=O)c1ccccc1C (configuration not stated)
2	COc1ccc(N2CC(NS(=O)(=O)c3cccnc3)CC2=O)cc1OC (configuration not stated)
3	COCc1cc(C)nc2sc(C(=O)Nc3ccc(OC)cc3)c(N)c12
4	CN(C)C(=O)c1ccc(-c2n[nH]c(=O)c3ccccc23)cc1
5	CCCc1nn2c(=O)cc(CSCC(=O)Nc3nnc(CC)s3)nc2s1
6	CNC(=O)NC(=O)COC(=O)CCCSc1nc2ccccc2s1
assay / entry	1	2	3	4	5	6
Cruzain Triton	-7.6%	.	.	.	.	-4.6%
Cruzain inh noDet	5%	.	.	.	.	1%
SARS PLP yeast	-15%	2%	-9%	0%	5%	-5%
StopGo reporter	0%	-14%	28%	-23%	-11%	?
LASV entry inh	4%	-2%	.	.	.	-17%
Marburg entry inh	-9%	22%	.	.	.	-20%
NS1 function inh	-41%	.	9%	-1%	-5%	-7%
RE007 growth inh	-3%	3%	2%	10%	-1%	-4%

7	CCOC(=O)C1=C(COC(=O)c2cccc(N(C)C)c2)NC(=O)NC1C (configuration not stated)
8	CCOC(=O)c1[nH]c(C)c(CCC(=O)NCc2ccc(C)cc2)c1C
9	O=C(NCCN1CCN(C(=O)c2cccs2)CC1)c1cccs1
10	COc1ccc(C2CC(c3cccs3)=NN2c2ccc(F)cc2)cc1OC (configuration not stated)
11	COc1ccc(/C=N/n2c(C)nc3c([nH]c4ccccc43)c2=O)cc1CN1CCCC(C)(C)C1
12	O=C(Nc1ccc2c(c1)N(C1CCCC1)C(=O)c1ccccc1S2)c1ccccc1
assay / entry	7	8	9	10	11	12
Cruzain Triton	.	2.7%	-1.4%	.	.	-1.1%
Cruzain inh noDet	.	-7%	0%	.	.	?
SARS PLP yeast	4%	.	0%	-2%	0%	.
StopGo reporter	14%	11%	0%	10%	-14%	0%
LASV entry inh	10%	-3%[46.1 µM]	2%	14%[46.1 µM]	.	2.8µM*
Marburg entry inh	-4%[46.1 µM]	.	11%	-11%[46.1 µM]	.	.
NS1 function inh	.	.	-5%	.	-2%	.
RE007 growth inh	-26%	.	-6%	6%	6%	.

13	Cc1ccc(C(C)C)c2oc(=O)cc(-c3ccc(-c4ccc(C(F)(F)F)cc4)cc3)c12
14	COc1ccc(N2C(=O)CC(N3CCC(C(N)=O)CC3)C2=O)cc1 (configuration not stated)
15	Cc1nc2ccccn2c1C(=O)CSc1cccc(Cl)c1
16	COc1ccc(S(=O)(=O)NN=C2CCCC2)cc1
17	CN(C)c1ccc(C=C2C(=O)NC(=S)NC2=O)cc1
18	O=c1c2cc3c(cc2[nH]c(=S)n1Cc1ccco1)OCO3
assay / entry	13	14	15	16	17	18
Cruzain Triton	1.0%	-11%	.	1.6%	.	0.3%
Cruzain inh noDet	?	-1%	.	0%	.	-1%
SARS PLP yeast	20%	-28%	-29%	-5%	.	-2%
StopGo reporter	-25%	28%	-25%	41%[activator]	28µM*	?
LASV entry inh	.	9%	0%[46.1 µM]	1%	?	29%
Marburg entry inh	.	1%	?	2%	?	6%
NS1 function inh	.	-37%	.	-5%	.	2%
RE007 growth inh	-10%	25µM*	-1%	-3%	33%	8%

19	CCn1c(COc2ccc(Cl)cc2)nnc1SCc1nc2ccccc2[nH]1
20	O=C(CCCN1C(=O)/C(=C/c2cccc(Br)c2)SC1=S)NCCCN1CCOCC1
21	CN1CCCN(Cc2nc(-c3ccc(Cl)cc3)no2)CC1
22	C=Cc1ccc(Cn2nc(-c3ccc(C)cc3)ccc2=O)cc1
23	COc1ccccc1-n1cnc2cc(NCc3ccco3)ccc21
24	CC(C)C[C@@H](C(=O)NC1CCN(Cc2ccccc2)CC1)N1C(=O)N2CCc3c([nH]c4ccccc34)[C@@]2(C)C1=O
assay / entry	19	20	21	22	23	24
Cruzain Triton	-3.6%	.	.	-14%	-0.8%	.
Cruzain inh noDet	5%	.	.	28%	-12%	.
SARS PLP yeast	-3%	3%	1%	-2%	4%	-3%
StopGo reporter	?	-2%	-25%	?	22%	?
LASV entry inh	0%	-9%[46.1 µM]	24%[46.1 µM]	-25%&-3%[46.1 µM]	-5%	.
Marburg entry inh	?	?	-5%[46.1 µM]	?	?	.
NS1 function inh	-1%	9%	3%	-6%	-36%	-6%
RE007 growth inh	4%	3%	-3%	-16%	-11%	-5%

25	CCOC(=O)C1CCCN(C(=O)c2ccc(Cl)c(S(=O)(=O)N3CCCCCC3)c2)C1 (configuration not stated)
26	FC(F)(F)c1cccc(Cn2cnc(NC(=S)NCCc3ccccc3)n2)c1
27	O=C(/C=C\c1ccccc1OC(=O)c1ccccc1F)c1cc2ccccc2o1
28	COc1ccccc1C/C(N)=N/OC(=O)COc1ccc2ccccc2c1
29	O=C1Nc2ccc(S(=O)(=O)N3CCCC3)c3ccc(S(=O)(=O)N4CCCC4)c1c23
30	CCc1ccc(NC(=O)c2cc3ccccn3n2)cc1
assay / entry	25	26	27	28	29	30
Cruzain Triton	.	.	1.0%	-1.3%	-8.4%	-8.2%
Cruzain inh noDet	.	.	2%	0%	2%	0%
SARS PLP yeast	-1%	0%	-13%	?	2%	.
StopGo reporter	?	-11%	-43%	.	3%	-55%
LASV entry inh	20%[46.1 µM]	.	?	15%	10%	26%[46.1 µM]
Marburg entry inh	?	.	?	3%	3%	.
NS1 function inh	.	-6%	-35%	-17%	-5%	.
RE007 growth inh	-1%	21%	-11%	-2%	29%	.

31	Cc1nnn(C23C[C@@H]4C[C@@H](CC(C(=O)N5CCN(c6ccccc6)CC5)(C4)C2)C3)n1
32	O=C(NCCc1ccccc1Cl)C1CCC(=O)N(CC2CCCCC2)C1 (configuration not stated)
33	O=C(N/C(=C/c1cccc([N+](=O)[O-])c1)C(=O)N1CCCCC1)c1ccco1
34	O=C1CN(C(=O)CNCc2ccc(Cl)cc2)c2ccccc2N1
35	COC(=O)c1cccc(NC(=O)CCCOc2ccccc2)c1
36	CN(C(=O)CCCN1C(=O)c2ccccc2C1=O)C1CCCCC1
assay / entry	31	32	33	34	35	36
Cruzain Triton	.	.	.	.	4.3%	.
Cruzain inh noDet	.	.	.	.	2%	.
SARS PLP yeast	0%	-2%	-3%	1%	-4%	-4%
StopGo reporter	?	-16%	9%	6%	-12%	42%[activator]
LASV entry inh	.	.	0%	.	?	13%
Marburg entry inh	.	.	15%	.	3%	?
NS1 function inh	7%	-18%	6%	-5%	-28%	.
RE007 growth inh	10%	-4%	10%	-4%	9%	1%

37	O=C(NNC(=S)NC(=O)c1cccnc1)c1ccc(F)cc1
38	CSC1=NCCN1C(=O)COc1ccc2ccccc2c1
39	COCCNC(=O)CS(=O)(=O)Cc1nc(-c2ccc(C)cc2)oc1C
40	Cc1cc(OC(C)C(=O)NCc2ccccn2)c2c(C)c(C)c(=O)oc2c1 (configuration not stated)
41	O=c1c2ccccc2ncn1-c1ccccc1F
42	Cc1c(Cl)cccc1Nc1nc(N)nc(CN2CCc3ccccc3C2)n1
assay / entry	37	38	39	40	41	42
Cruzain Triton	.	-2.9%	-0.3%	.	.	-4.2%
Cruzain inh noDet	.	9%	5%	.	.	6%
SARS PLP yeast	-2%	9%	21%	-1%	1%	-10%
StopGo reporter	-4%	-1%	-11%	-13%	-12%	-4%
LASV entry inh	7%	.	.	.	1%[46.1 µM]	-4%
Marburg entry inh	25%[46.1 µM]	.	.	.	3%[46.1 µM]	-7%
NS1 function inh	-6%	-13%	?	2%	3%	1%
RE007 growth inh	9%	-9%	-1%	-1%	-4%	-5%

43	CC1=CC(O)C(O)C2(C)C1CC1OC(=O)CC3C(C)C(O)C(=O)C2C13CO (configuration not stated)
44	COc1ccc(-c2nc(CS(=O)(=O)CC(=O)NC3CCCCC3C)c(C)o2)cc1 (configuration not stated)
45	CC(C)CCNC(=O)C(=O)Nc1c2c(nn1-c1ccc(Cl)cc1)CSC2
46	COc1ccc(-c2[nH]n(-c3ccc([N+](=O)[O-])cc3)c(=O)c2C=NCC2CCCO2)cc1 (configuration not stated)
47	COc1ccc(C(=O)Nc2c(F)c(F)c(F)c(F)c2F)c(OC)c1
48	CC1=NC(=O)C(N=Nc2cccc(O)c2)N1c1ccccc1 (configuration not stated)
49	COc1ccc(-c2ccc(OC)c(OC)c2OC)c(OC)c1OC
assay / entry	43	44	45	46	47	48	49
Cruzain Triton	.	.	0.1%	.	-1.5%	-12%	.
Cruzain inh noDet	.	.	?	.	-4%	0%	.
SARS PLP yeast	.	0%	.	0%	-8%	-4%	.
StopGo reporter	-28%	-12%	-2%	-9%	3%	19%	0%
LASV entry inh	-15%	-16%[46.1 µM]	-13%[46.1 µM]	7%	6%	5%	?
Marburg entry inh	?	-4%[46.1 µM]	.	4%[14.2 µM]	?	22%	-16%
NS1 function inh	.	9%	.	5%	-2%	-6%	.
RE007 growth inh	-13%	7%	.	-8%	-14%	-14%	0%

Record cards (already shown):
`COc1ccc(C(=O)Nc2c(F)c(F)c(F)c(F)c2F)c(OC)c1` as listed: Cruzain Triton: -1.5%; Cruzain inh noDet: -4%; SARS PLP yeast: -8%; StopGo reporter: 3%; LASV entry inh: 6%; Marburg entry inh: ?; NS1 function inh: -2%; RE007 growth inh: -14%
`COc1ccc(-c2nc(CS(=O)(=O)CC(=O)NC3CCCCC3C)c(C)o2)cc1` (configuration not stated) as listed: Cruzain Triton: .; Cruzain inh noDet: .; SARS PLP yeast: 0%; StopGo reporter: -12%; LASV entry inh: -16%[46.1 µM]; Marburg entry inh: -4%[46.1 µM]; NS1 function inh: 9%; RE007 growth inh: 7%
`CC(C)CCNC(=O)C(=O)Nc1c2c(nn1-c1ccc(Cl)cc1)CSC2` as listed: Cruzain Triton: 0.1%; Cruzain inh noDet: ?; SARS PLP yeast: .; StopGo reporter: -2%; LASV entry inh: -13%[46.1 µM]; Marburg entry inh: .; NS1 function inh: .; RE007 growth inh: .

Screens from PubChem BioAssay.
